HIV Env fusion = inhibitors of HIV-1 Env-driven cell-cell fusion, primary screen, HeLa-JRFL effector, CEM21 target cells, luciferase; inhibition, % at 12.3 µM; actives 1.1% (n = 360,000); AID 651610, 2012;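 active means mean replicate inhibition score of at least 50 and every replicate individually at or above 50; inconclusive means only one of the two criteria met; inactive means mean below 50 and not all replicates reaching 50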;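 further: 0% = plate neutral controls and 100% = maraviroc near 300 nM; one replicate is shown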
UUG fidelity = modulators of yeast start codon fidelity, primary screen, whole organism, S. cerevisiae, single point, plate reader. S. cerevisiae UUG-firefly luciferase reporter, luminescence/redox ratio. activity score, % at 18.7 µM. actives 0.13% (n = 350,000);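 active means replicate mean at a twofold rise or more, about +100% in these data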;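 further: firefly luciferase made from a UUG start codon reports start codon fidelity; reporter light over untreated wells divided by growth signal over untreated wells; some hits fall short of that in this replicate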
CSC inhib = cancer stem cell viability inhibitors, primary screen, luminescence | cancer stem cell-like cells viability | inhibition, % at 7.5 µM | actives 1.1% (n = 300,000) | AID 2717, 2010;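 active means mean at 75% or more and at least half the replicates too; inconclusive means mean and replicates disagree; tested in HMLE shEcad cells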;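 further: 0% = median of negative and 100% = median of positive control wells; the first replicate is given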
PABP polyA inh = PABP poly(A) RNA binding inhibitors, primary screen, biochemical, fluorescence polarization, uHTS; inhibition, % at 35 µM; actives 1% (n = 290,000);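 active means 50% or more with normal probe brightness, or confirmed in later tests; inconclusive means above 50% with abnormal brightness, or retests that disagree; inactive means below 50% or failed in later tests; about a fifth of its hits are not listed in these tables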;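 further: calls also rest on retests at 20 µM and on dose response follow-up; controls were probe without protein and protein plus probe with vehicle; some compounds called inactive have numbers as strong as hits; many hits fall short of the cut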
Target sequence (P11940 whole entry, looked up): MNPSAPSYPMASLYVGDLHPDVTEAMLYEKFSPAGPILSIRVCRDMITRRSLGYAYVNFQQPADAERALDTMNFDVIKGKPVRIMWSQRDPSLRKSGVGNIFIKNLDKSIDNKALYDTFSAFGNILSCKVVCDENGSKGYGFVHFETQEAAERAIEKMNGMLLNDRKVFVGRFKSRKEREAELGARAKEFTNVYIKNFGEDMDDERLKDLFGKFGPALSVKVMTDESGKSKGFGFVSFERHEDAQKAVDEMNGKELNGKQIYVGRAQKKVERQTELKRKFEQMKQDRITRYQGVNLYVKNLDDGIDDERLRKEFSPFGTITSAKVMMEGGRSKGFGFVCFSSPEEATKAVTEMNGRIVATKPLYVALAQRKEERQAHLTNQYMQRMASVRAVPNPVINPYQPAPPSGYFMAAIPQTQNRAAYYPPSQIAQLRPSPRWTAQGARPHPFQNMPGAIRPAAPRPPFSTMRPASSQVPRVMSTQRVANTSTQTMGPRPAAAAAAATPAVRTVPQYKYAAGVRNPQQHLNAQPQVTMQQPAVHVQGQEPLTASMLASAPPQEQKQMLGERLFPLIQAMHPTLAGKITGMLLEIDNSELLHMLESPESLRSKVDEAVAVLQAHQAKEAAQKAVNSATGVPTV
Rce1 inhib = yeast Rce1p protease inhibitors, primary screen, biochemical, fluorescence, cell-free homogeneous | calls only | CAAX prenyl protease 2 (Saccharomyces cerevisiae (strain ATCC 204508 / S288c)), Q03530 | actives 0.27% (n = 290,000) | yeast membranes, quenched prenylated peptide cleavage fluorescence;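 active means fall in fluorescence gain of 50% or more versus controls, with final raw signal at or below 3038400; inconclusive means same 50% fall but final raw signal above 3038400; inactive means fall in fluorescence gain under 50%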;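 further: plate controls were neutral control wells for no effect and wells lacking membranes for full effect; tested at 10 µM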
Target sequence (Q03530 whole entry, looked up): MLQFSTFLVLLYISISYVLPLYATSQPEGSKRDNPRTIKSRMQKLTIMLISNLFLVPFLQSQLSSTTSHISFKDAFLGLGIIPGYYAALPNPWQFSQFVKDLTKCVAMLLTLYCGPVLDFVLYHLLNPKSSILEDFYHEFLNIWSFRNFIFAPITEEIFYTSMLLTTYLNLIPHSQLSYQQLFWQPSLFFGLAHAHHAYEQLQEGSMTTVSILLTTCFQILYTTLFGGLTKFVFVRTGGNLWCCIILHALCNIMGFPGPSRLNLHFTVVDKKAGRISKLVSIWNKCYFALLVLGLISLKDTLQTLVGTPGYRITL
MT1-MMP act inh = blockers of MT1-MMP proenzyme processing, primary screen, HT1080 RFP-PRO-GFP cells, GFP/RFP fluorescence; Matrix metalloproteinase-14 (Homo sapiens), P50281; GFP/RFP ratio fluorescence, overnight; percent of plate control window, DMSO zero; GFP/RFP ratio change, % at 20 µM; actives 0.061% (n = 360,000); AID 651647, 2012;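 active means GFP/RFP ratio change of at least 30% with cell ATP level not reduced by more than half and red fluorescence within 50% of control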; further: strong numbers were not always called active
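system = RFP-PRO-GFP reporter HT1080 cells | dosing = 20 µM single dose, 1% DMSO | timing = overnight cell settling, then overnight compound exposure, 37 °C, 5% CO2 | read-out basis = GFP/RFP fluorescence ratio | controls = DMSO and RFP-L50D-GFP cell wells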
eIF4H FP inh = human eIF4H binding inhibitors, primary screen, translation initiation inhibitor project, biochemical, uHTS, fluorescence polarization. eIF4H fluorescence polarization binding assay. actives 0.94% (n = 290,000). AID 2012, 2009. Eukaryotic translation initiation factor 4H (Homo sapiens), Q15056. inhibition, % at 35 µM;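 active means 50% or more with normal probe brightness, or confirmed in later tests; inconclusive means above 50% with abnormal brightness, or retests that disagree; inactive means below 50% or failed in later tests; about a fifth of its hits are not listed in these tables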;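 further: calls also rest on retests at 20 µM and on dose response follow-up; 0% = protein and probe with vehicle and 100% = probe without protein; strong numbers were not always called active; many hits fall short of the cut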
eIF4H FP inh retest = further read-out of eIF4H FP inh, marked with its call; inhibition, %; compound at 20 µM; confirmation average;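 mean of two retest wells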
PABP polyA inh retest = recorded beside PABP polyA inh, whose call it bears; inhibition, %; compound at 20 µM; confirmation repeats;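 mean of two retest wells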
MT1-MMP act inh RFP = recorded beside MT1-MMP act inh, whose call it bears; RFP signal change, %; measured here: RFP expression control read;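 0 = vehicle wells; hits needed this value within 50% of zero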
Starred values were filed as active, the others as inactive; i = inactive; ? = inconclusive; . = not tested or not shown. These rows are one share of the data; count on the stated rates, not on these rows.

SMILES	HIV Env fusion	UUG fidelity	CSC inhib	PABP polyA inh	Rce1 inhib	MT1-MMP act inh	MT1-MMP act inh RFP	eIF4H FP inh	others
COC(=O)C1=Nc2ccccc2/C1=C\c1c(O)n(C)c(=O)n(C)c1=O	1	-8	-10	18*	i	-7	-4	63	eIF4H FP inh retest=-8;PABP polyA inh retest=57*
CC(Cc1ccccc1)NC(=O)Cc1ccc(N(C)C)cc1 (stereo not given)	-4	.	0	1	i	4	6	0
CC1(C)CN=C(Nc2nc3ccccc3s2)S1	.	-25	4	2	i	-1	-3	-7
CCOc1ccc(CC2(CCc3ccncc3)C(=O)NC(=O)NC2=O)cc1	13	.	-26	-4	i	1	0	-2
O=C(CN1CC=C(c2ccccc2)CC1)NC(=O)NCc1ccco1	-70	-4	3	16	i	2	4	37
Cc1ccc(C2(O)CC(C)N(C)CC2C)cc1 (stereo not given)	.	1	-8	-1	i	-3	2	6
CC(C(=O)c1ccc2ccccc2c1)N1CCCCC1 (stereo not given)	-4	.	-7	18	i	0	2	-4
CCCCn1c(=O)c(C(=O)NC(C)c2ccccc2)c(O)c2ccccc21 (stereo not given)	9	4	-3	3	i	-2	-6	4
O=C(O)C(O)(c1ccccc1)C1CCCCC1 (stereo not given)	6	-8	15	4	i	-5	-1	-13
C[N+]1(C)CCC(OC(=O)C(c2ccccc2)c2ccccc2)CC1	-12	-9	3	.	i	2	3	.
CN1/C(=C\C=Nc2ccccc2)C(C)(C)c2ccccc21	64*	5	-5	8	i	73	57	37
C/C(=N\NC(=O)c1ccccc1Cl)c1c(O)n(C2CCCCC2)c(=O)[nH]c1=O	-6	6	-12	-4	i	1	-1	1
Cn1c(O)c(C=NCCCNC2CCCCC2)c(=O)n(C)c1=O	.	-6	.	-5	i	6	0	-9
COC(=O)C1=C(c2ccccc2OCc2ccccc2)C[C@@H]2CC[C@H]1N2C(=O)NCCOc1ccccc1Cl	9	1	19	.	.	-7	-9	.
CCc1ccc(N2C(=O)NC(=O)/C(=C\c3cccn3CCOc3ccc(C(C)C)cc3)C2=O)cc1	-201	3	20	-9	i	-14	-6	?
CCOc1c(Cl)cc(CNCCc2c[nH]c3ccccc23)cc1OC	64*	.	37	2	i	0	-3	-9
N#Cc1ccc(OCC(=O)N2CCN(Cc3ccc4c(c3)OCO4)CC2)cc1	-10	4	5	-3	i	6	3	-6
Nc1cc(C(=O)Nc2ccccc2F)ccc1N1CC2CC(C1)c1cccc(=O)n1C2 (stereo not given)	-2	1	.	.	.	-1	1	.
Cc1ccc(-n2c(/C=C/c3ccc4c(c3)OCO4)nc3ccccc3c2=O)cc1	3	.	.	0	i	.	.	1
O=[N+]([O-])c1ccc(N2CCCC(C(F)(F)F)C2)c2ccncc12 (stereo not given)	4	2	-4	-4	i	-6	-26	1

The last 5 entries of the part before lead into the next:
SMILES	HIV Env fusion	UUG fidelity	CSC inhib	PABP polyA inh	Rce1 inhib	MT1-MMP act inh	MT1-MMP act inh RFP	eIF4H FP inh	others
CCOc1c(Cl)cc(CNCCc2c[nH]c3ccccc23)cc1OC	64*	.	37	2	i	0	-3	-9
N#Cc1ccc(OCC(=O)N2CCN(Cc3ccc4c(c3)OCO4)CC2)cc1	-10	4	5	-3	i	6	3	-6
Nc1cc(C(=O)Nc2ccccc2F)ccc1N1CC2CC(C1)c1cccc(=O)n1C2 (stereo not given)	-2	1	.	.	.	-1	1	.
Cc1ccc(-n2c(/C=C/c3ccc4c(c3)OCO4)nc3ccccc3c2=O)cc1	3	.	.	0	i	.	.	1
O=[N+]([O-])c1ccc(N2CCCC(C(F)(F)F)C2)c2ccncc12 (stereo not given)	4	2	-4	-4	i	-6	-26	1
CCC1(C(=O)c2ccc(C)cc2)C2c3ccccc3OC(=O)C21C(=O)O (stereo not given)	-87	-14	1	-2	i	-5	-3	-3
CC1CN(CC(=O)c2ccccc2Cl)CC(C)O1 (stereo not given)	1	-15	-7	-4	i	0	2	-8
Cc1cccc(CN2CCCC(C(=O)c3cccc(OC(C)C)c3)C2)n1 (stereo not given)	6	.	-1	-7	i	3	0	-9
Cc1ccc(C(C)C)c(OCC(=O)N2CCN(Cc3nc4cc([N+](=O)[O-])ccc4n3C)CC2)c1	-11	.	3	33	i	2	6	-2
COC(=O)C1=C(c2c(C)noc2C)C[C@@H]2CC[C@H]1N2C(=O)N1CCCC1	-230	-11	5	.	.	3	3	.
COC(=O)c1ccc(CC(C(=O)c2ccccc2)N(C)C)cc1 (stereo not given)	-37	4	-9	3	i	-25	-2	-5
CCOc1ccc(C2SCC(=O)Nc3c2c(C)nn3C2CCOC(C)(C)C2)cc1 (stereo not given)	-73	0	2	8	i	9	0	-8
COc1cc2c(c(OC)c1OC)-c1ccc(O)c(=O)cc1[C@@H](NC(C)=O)CC2	-39	-29	53	.	.	9	-5	.
CC(=NCc1cccnc1)c1c(O)n(-c2ccccc2C)c(=O)[nH]c1=O	.	-22	4	7	i	-7	-4	-7
CCOP(=O)(OCC)C(NC(=O)Cc1ccccc1)C(Cl)(Cl)Cl (stereo not given)	15	.	-14	5	i	-1	1	-9
Cc1nc2cc(C(F)(F)F)ccc2n1C1CCN(Cc2nnnn2Cc2ccc3c(c2)OCO3)CC1	?	.	22	2	i	6	-6	-8
Cc1cc(Cc2c(O)[nH]c(=S)[nH]c2=O)ccc1OC(C)C	-16	-26	-2	-5	i	-1	4	-11
CCOc1cccc(=NC2CCCCC2)c2c(C)n(C)c(C)c12	14	6	0	?	i	-33	-20	?
CN1CCN(c2nc(N)cc(=O)[nH]2)CC1	12	-12	-3	7	i	-3	0	3
Fc1ccc(C2NCCc3[nH]cnc32)cc1 (stereo not given)	.	-31	-29	7	i	4	5	5
COc1cc(C2NCc3ccccc3-n3cccc32)ccc1O (stereo not given)	.	-1	-4	2	i	3	-1	-12
O=C(c1cn(Cc2ccccc2)c2ccccc12)C1CC1	10	-8	6	5	i	-3	-1	4
O=c1[nH]c(=O)n(-c2cccc3ccccc23)c(O)c1/C=N/N1CCCCC1c1cccnc1 (stereo not given)	10	-4	-4	9.1*	i	-17	2	89*	eIF4H FP inh retest=95*;PABP polyA inh retest=68*
COC(=O)[C@]1(C)C[C@H]1[C@H](NP(=O)(c1ccccc1)c1ccccc1)c1ccccc1	-44	-5	-6	10	i	0	5	0
Cc1ccc(C)c(NC2=NCCCS2)c1	.	14	-1	-11	i	-1	0	11
CCCCCCNc1nc(OC)nc(N2CC3CC(C2)c2cccc(=O)n2C3)n1 (stereo not given)	20	2	3	-15	i	5	5	-8
CN1CC(C(=O)c2ccc(Cl)cc2)C(c2ccccc2)C1 (stereo not given)	15	.	7	0	i	-2	1	1
Cc1ccc2c(c1)C1CN(C)CCC1N2C(=O)Nc1cccc(Cl)c1 (stereo not given)	33	-11	26	-5	i	3	-3	3
COc1ccccc1-n1c(O)c(C=NCCN2CCNCC2)c(=O)[nH]c1=O	-38	-20	-9	0	i	-4	2	-1
COc1ccc(OCC(=O)N2CCN(Cc3ccc4c(c3)OCO4)CC2)cc1	1	-20	-11	-9	i	-1	0	-7
COc1ccc(CN2CCN(C(=O)COc3cccc(C)c3)CC2)c(OC)c1	.	-4	.	5	i	3	3	-1
O=C(c1ccccc1)C(CN1CCCC1)c1ccccc1 (stereo not given)	-43	.	49	2	i	-10	-28	4
Clc1ccc(OCC#CCN2CCCC2)cc1	-16	.	-9	1	i	0	1	12
N/C(=N\[N+](=O)[O-])N1CCN(C(=O)c2ccccc2)CC1	2	.	-1	8	i	.	.	0
CSc1ncc(CN2CCCC(C(=O)c3ccccc3SC)C2)cn1 (stereo not given)	23	-3	.	-4	i	3	1	0
N#Cc1c(N2CCNCC2)nc(-c2ccco2)c2c1CCCC2	-10	3	-13	2	i	-3	-5	1
CCOP(=O)(OCC)C(NC(=O)c1ccccc1)C(Cl)(Cl)Cl (stereo not given)	.	-11	3	3	i	2	7	-4
CCOC(=O)C(O)(c1ccc(N=Cc2ccccc2O)c(C)c1)C(F)(F)F (stereo not given)	9	.	-3	-6	i	3	4	-2
COC(=O)C1=C(c2c(C)noc2C)C[C@@H]2CC[C@H]1N2C(=O)NCC1CC1	-10	-16	3	.	.	3	5	.
CC(C)(C)NC(=O)NC(=O)CN1CC=C(c2ccccc2)CC1	12	-1	-5	-7	i	-5	-2	11
COc1ccc(-n2nnnc2C(c2ccnc3ccccc23)N2CCC(n3c(=O)[nH]c4ccccc43)CC2)cc1 (stereo not given)	-76	0	.	.	.	3	-2	.
Cc1ccc(C(O)(C(=O)NNC(=O)CN2CCN(C)CC2)c2ccc(C)cc2)cc1	-24	.	1	13	i	-2	2	-2
COc1ccc(/C=N\N=C(N)N)cc1	-1	.	-4	-12	i	-2	0	-11
Oc1ccc(CC2CC3CCN2CC3)cc1O (stereo not given)	.	-27	-1	-6	i	9	6	-1
CCC(=NCCCN1CCOCC1)c1c(O)n(-c2ccccc2C)c(=O)[nH]c1=O	-201	.	4	5	i	0	-5	-1
Cc1ccc2nc(N3CCN(C)CC3)[nH]c2c1	-80	-19	-16	33	i	5	3	2
COc1ccc(CCn2c(O)c(C=NCCCn3ccnc3)c(=O)[nH]c2=O)cc1OC	-27	-13	-4	0	i	-2	4	0
COC1C(OC(=O)c2ccc(C)[nH]2)C(O)C(Oc2ccc3c(O)c(NC(=O)c4ccc(O)c(CC=C(C)C)c4)c(=O)oc3c2Cl)OC1(C)C (stereo not given)	.	2	3	17	.	1	-8	-4
Cn1c(O)c(Cc2ccc(OCc3ccccc3)cc2)c(=O)n(C)c1=O	-5	-15	-2	5	i	-2	-2	3
CCCNC(=O)N1CCC2(CC1)OCCO2	5	.	-17	4	i	5	4	-13
O=C1OC(c2ccc([N+](=O)[O-])cc2)=N/C1=C/N1CC2CC(C1)c1cccc(=O)n1C2 (stereo not given)	-131	.	-16	4	i	-25	-3	-6
CN(C(=O)Oc1cccc2ccccc12)C1C=CCC1 (stereo not given)	-55	9	.	.	.	1	1	.
NC(Cc1ccccc1)c1csc(Nc2ccccn2)n1 (stereo not given)	-15	-19	.	.	.	1	1	.
COC(=O)C1=C(c2ccc(OC)c(OC)c2)C[C@@H]2CC[C@H]1N2C(=O)NC1CC1	11	-17	9	.	.	1	0	.
CC(=O)Nc1nc(CCl)cs1	-4	.	.	4	.	4	6	-6
CO[C@H]1CC=C2CCN3CCC4=C(CC(=O)OC4)[C@]23C1	31	-13	-11	.	.	1	4	.
O=c1[nH]c(=S)n(-c2ccccc2F)c(O)c1C=Nc1ccc(N2CCOCC2)cc1	1	.	11	5	i	-4	2	26
O=C(c1ccc2c(c1)ncn2C1CCCCC1)N1CCC2(CC1)OCCO2	.	.	25	2	i	.	.	-1

Screening data deposited in PubChem by several laboratories.
